Autofluor counter: compound fluorescence in toxin protease inhibitor counterscreen | compound autofluorescence counterscreen, microsphere flow cytometry; active compounds read high | fluorescence intensity (no concentration beside the values) | hit rate 3.1% among 360,000;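 active = at least 3 SD above the mean of all compounds, about 16000 in these data; inconclusive = too few beads counted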;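 note: 100 nL of 1 mM stock went into each well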
ugtP null kill: compounds lethal to S. aureus RN4220 ugtP deletion mutant; OD600 growth, 16 h; some inactives read as strong as hits; growth inhibition, % (test concentration not listed); hit rate 0.54% among 330,000; AID 1259309;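 active = z-score under -3 and OD600 up to 0.15 on both plates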;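 note: plate controls were untreated wells for no effect and antibiotic for full effect; wells of about 80 µL received 100 nL stock; the first replicate is given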
BJeLR viability: BJeLR cell viability loss; inhibition, % (no concentration beside the values); hit rate 0.17% among 300,000; BJeLR (HRASV12) viability, CellTiter-Glo ATP luminescence, 48 h; reference of the scale not given here; AID 1554;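 active = replicate mean above 50%; inconclusive = above 50% but judged a plate artefact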;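 note: 50 nL library stock added to about 25 µL; numbers are from one replicate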
Sa RN4220 lethal: S. aureus RN4220 growth inhibition. OD600, 16 h. inhibition, % (concentration not given with the values). hit rate 0.33% among 330,000;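 active = z-score of -3 or lower and OD600 up to 0.18 on both plates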;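 note: plate controls were untreated cells for no effect and reference antibiotic for full effect; stock transfer was 100 nL into about 80 µL; one replicate is shown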
PrP UTR inh: suppresses PrP 5' UTR mRNA reporter expression; cell-based PrP 5' UTR mRNA reporter, plate reader; inhibition, % (concentration not given with the values); hit rate 0.35% among 340,000; AID 488862;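 active = every replicate at 50% or more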;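 note: 0 = median of the neutral control wells; tested in H4 reporter cells; numbers are from one replicate; inactives centre near -14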
Mtb hypoxia rep: reduces hypoxia-regulated biosensor signal in M. tuberculosis; fluorescence inhibition, % (concentration not given with the values); hit rate 0.1% among 300,000; M. tuberculosis hypoxia-regulated fluorescent reporter, fluorescence;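 active = 35 to 45% if threefold the growth effect, above 45% if 1.5-fold the growth effect; inactive = the rest, general growth blockers included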;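 note: wells of about 50 µL received 100 nL stock; 0% = vehicle wells and 100% = reference inhibitor wells; whole bacteria with a GFP reporter of the hypoxia response; strong numbers were not always called active; many hits fall short of the cut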
Mtb hypoxia rep growth: also measured in Mtb hypoxia rep; calls as there; growth inhibition, %; measured here: M. tuberculosis growth (absorbance);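 0% = vehicle and 100% = reference antibiotic; read after six days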
An asterisk follows results filed as active; ? = inconclusive; . = not tested or not shown; & = joins results of further samples.

SMILES	Autofluor counter	ugtP null kill	BJeLR viability	Sa RN4220 lethal	PrP UTR inh	Mtb hypoxia rep	Mtb hypoxia rep growth
Cc1cccc2c1N1C(=O)c3c(C(=O)O)cccc3C1CC2C (stereo unspecified)	3438	11	5	6.2	-12	0	-6
CN(CC(=O)Nc1ccc(F)cc1)C(=O)COC(=O)c1cccc(N(C)C)c1	5162	1	.	1.4	-39	7	-3
COc1ccccc1Nc1nc(-c2sc(NC(=O)CC(C)C)nc2C)cs1	2727	-2	2	-3.9	15	4	11
CCOc1ccc(CCNC(=O)Cn2nc(C)c3c(C)n(-c4ccccc4)nc3c2=O)cc1	4089	-8	-2	-0.1	-11	-4	5
Cc1[nH]nc2c1C(c1ccc(-c3ccc(Cl)cc3)o1)C(C#N)=C(N)O2 (stereo unspecified)	2217	14	-23	9.4	-18	9	13
O=C1c2ccccc2C(O)N1Cc1cccs1 (stereo unspecified)	2448	16	-1	2.5	-12	2	-3
CC(=O)Nc1cc(C)nn1-c1nc(C)cc(C)n1	4035	3	0	3.3	-14	5	8
COC(=O)CCCc1nc2ccccc2s1	2068	6	13	1.7	-15	.	.
CCNC(=O)N(CC)C[C@H]1N[C@@](C)(C(=O)OC)[C@H]2C(=O)N(Cc3ccccc3)C(=O)[C@@H]12	3701	0	.	1.5	-9	-17	1
C/C(C=NNC(=O)c1ccccc1F)=C\c1ccccc1	.	9	.	6.2	.	3	-1
Cc1ccc2cc(/C=N/Nc3nc4ccccc4[nH]3)c(Cl)nc2c1	2487	.	24	.	-51	.	.
Cc1cc(-c2csc3nc[nH]c(=S)c23)cc(C)c1C	4218	6	-2	4.0	1	12	9
Cc1ccc(C(=O)O/N=C(\N)c2ccccn2)c(C)c1	6850	.	22	.	95*	.	.
COc1ccc2[nH]c(=O)c(CNc3ccc(C)cc3C)cc2c1	5964	-3	1	3.6	-10	-7	1
COc1ccc(C(=O)NC(=S)NCc2cccnc2)cc1[N+](=O)[O-]	2640	5	-4	3.3	-29	8	10
C/C(CC(=O)Nc1ccc(C)c(Cl)c1)=N\NC(=O)c1ccccn1	5415	.	-1	.	-30	.	.
Cc1cc(C)n2nc(C(=O)OCC(=O)Nc3ccc4c(c3)OC(F)(F)O4)nc2n1	5311	0	5	2.1	-6	.	.
O=Cc1cn(Cc2ccc(F)cc2)c2ccccc12	2119	2	-2	2.5	35	1	1
CCCc1c(C(=O)OCC)sc(N)c1C#N	4759	5	-4	4.5	-16	8	9
O=C(Nc1ccc(F)cc1)C1CCCN1S(=O)(=O)c1cccc2nsnc12 (stereo unspecified)	4169	-3	0	4.9	-21	12	8
O=C(Nc1ccccc1F)c1ccc(C(=O)c2ccccc2)cc1	5233	-3	14	-0.2	-37	6	7
CCOC(=O)c1c(NC(C)=O)sc2c(O)c(CN3CCN(CC)CC3)ccc12	12899	-7	-4	2.5	-5	7	10
Fc1ccc(-c2ccc(-c3nn4c(-c5ccco5)nnc4s3)o2)cc1	3992	-24	4	4.7	-29	7	1
COc1cc(C=NNc2ccc(Cl)c(C(=O)O)c2)ccc1OC(=O)c1cccs1	.	8	.	8.4	.	-3	8
Cc1ccc(NC(=O)CCNS(=O)(=O)c2cccc3nonc23)cc1	7271	5	-11	-0.2	-19	7	-6
CCC(C)(C(=O)NC1CCCC1)N(Cc1cccs1)C(=O)c1ccccn1 (stereo unspecified)	4029	11	9	1.8	-22	1	7
COc1cccc(C(=O)N(c2ccc(C)cc2)C2C=CS(=O)(=O)C2)c1 (stereo unspecified)	2514	4	0	2.9	-14	7	3
Cc1ccc(NC(=O)/C=C/c2cccs2)c([N+](=O)[O-])c1	6082	2	-2	6.3	-82	7	9
CCOc1ccc(N2CC(O)=C(c3nc4ccccc4c(=O)[nH]3)C2=N)cc1	3800	4	8	3.4	-30	11	11
COc1ccc(C(C)=O)cc1CSc1nc2ccccc2o1	2432	26	5	0.1	-24	3	-3
COc1ccc(CC(=O)NNC(=O)[C@@H]2CCCC[C@@H]2C(=O)O)cc1	4669	7	-10	-1.5	-17	12	0
COC(CC1OC1C(O)COCc1ccccc1)OC (stereo unspecified)	.	1&-2&5&2&4&6&1&-5	.	9.5&0.1&11&10&2.2&4.9&3.7&4.9	.	14&3&12&12&9&2&4&-5	3&16&14&9&6&2&3&2
CCN(CC)S(=O)(=O)c1ccc(NN=Cc2ccc(O)cc2)nc1	.	-2	.	3.3	.	13	4
CC(OC(=O)c1ccc(O)cc1)C(=O)Nc1cc(C(F)(F)F)ccc1Cl (stereo unspecified)	4679	-11	-1	-1.1	-10	7	1
CC(=O)c1cccc(N(CC(=O)NCCc2ccccc2)C(=O)c2csnn2)c1	5772	4	-17	-0.8	-89	-6	1
Cc1ccn2c(=O)c(NC(=O)c3cccc4ccccc34)c(C)nc2c1	5097	5	-8	22	-8	5	7
CCOC(=O)c1c(C)[nH]c(C)c1S(=O)(=O)N1CCOCC1	5781	1	1	2.6	-1	3	-5
CC(C)C1COC(c2cccc(C3=NC(C(C)C)CO3)n2)=N1 (stereo unspecified)	.	2	.	7.6	.	12	17
CNc1nc(C)c(C#N)cc1C(C)=O	4126	-2	10	-0.3	-17	-4	7
CC(=O)N(c1cccc(C)c1)C1SC(=O)N(c2ccccc2)C1=O (stereo unspecified)	4277	4	-6	2.4	-18	.	.
c1ccc2c(c1)CC(N1CCCCC1)c1ccccc1S2 (stereo unspecified)	5100	23	-5	1.3	3	-4	7
CN(Cc1nc(-c2ccccn2)no1)S(=O)(=O)c1ccc(Cl)cc1	21655*	-2	6	1.8	-3	12	7
Cc1nnc(NCc2ccccc2)c2ccccc12	3491	-2	-2	-4.6	-4	81*	22*
C/C(C=NNC(=O)c1ccc(Cn2cc([N+](=O)[O-])cn2)o1)=C\c1ccccc1	.	4	.	-2.1	.	-3	2
CCN1CC(CN(C)Cc2nc(-c3ccc(C(F)(F)F)cc3)no2)CC1=O (stereo unspecified)	3433	2	7	3.0	-12	8	-2
CN(C(=O)c1ccccc1C(=O)OCC(=O)c1ccc(F)cc1)c1ccccc1	6666	-6	.	0.7	-9	-4	1
Cc1ccc(S(=O)(=O)N2CCN(c3ccccn3)CC2)cc1	5887	9	-2	3.0	.	10	20
CC(=O)c1cc(C(=O)Nc2ccc(C(=O)O)cc2)oc1C	8509	0	-6	1.8	-7	5	11
COc1ccc(NS(=O)(=O)c2cccc(C(=O)N/N=C/c3cccs3)c2)cc1	8635	.	-9	.	-25	.	.
O=C(Nc1cccc(S(=O)(=O)N2CCOCC2)c1)c1c2c(nc3ccccc13)CCC2	2865	-2	18	3.5	-27	9	-1
CC(=O)c1cccc(NC(=O)Cn2c(=O)oc3cc(S(=O)(=O)N4CCCC4)ccc32)c1	4081	6	-5	1.7	-12	9	3
COc1ccc(CNC(=O)[C@H](CCSC)NC(=O)N2CCn3c2nc2ccccc23)cc1	5678	0	-9	-1.9	-6	14	6
O=C(CSCc1ccc([N+](=O)[O-])cc1)NC1CCCCCC1	2487	-3	4	1.8	2	-6	-8
COc1ccccc1Nc1nc(-c2c(C)[nH]c3ccccc23)cs1	2114	-1	.	7.2	-40	4	4
COc1ccccc1[N+](=O)[O-]	6630	1	.	4.7	-4	7	3
COc1ccc(NC(=O)Cn2nc(Cc3cccnc3)c3ccccc3c2=O)cc1OC	5128	-2	1	-14	-25	1	4
COc1cc(OC)cc(-n2nnnc2SCC(=O)Nc2ccc(C(C)=O)cc2)c1	2421	-7	-3	3.5	-3	14	7
COc1cc(OC)cc(OC(=O)C2CCN(S(=O)(=O)c3ccc(OC)c(OC)c3)CC2)c1	6237	0	6	2.0	-1	-4	-1
COc1ccc(NC(=O)c2cccc(S(=O)(=O)N3CCOCC3)c2)cc1	4358	0	-7	1.0	-17	7	3
NC(=O)CC(NC(=O)Cc1ccc(Br)cc1)c1ccc(NC2CCCC2)c([N+](=O)[O-])c1 (stereo unspecified)	3051	-17	-9	0.2	-21	9	11
(further entries)
SMILES	Autofluor counter	ugtP null kill	BJeLR viability	Sa RN4220 lethal	PrP UTR inh	Mtb hypoxia rep	Mtb hypoxia rep growth
CCOC(=O)C1=C(C)N(CC)C(=S)NC1c1ccc(Cl)cc1 (stereo unspecified)	9424	-9	-12	0.5	-18	0	4
Nn1c(SCc2ccccc2)nnc1-c1ccco1	5616	9	-1	6.0	9	3	6
Cc1cc(C)c2cc(CN(Cc3ccco3)C(=S)NCC3CCCO3)c(=O)[nH]c2c1 (stereo unspecified)	4585	.	2	.	-5	.	.
COC(=O)c1ccc(N2CCN(C)CC2)c(NC(=O)c2ccc(Br)o2)c1	5477	14	-3	10.0	-6	4	10
CCCC[n+]1c(-c2ccc(Cl)cc2Cl)csc1Nc1ccccc1	2081	23	8	-8.9	-35	1	-3
COc1ccc(-c2cc3c(nn2)-c2ccccc2C3=O)cc1	2398	4	22	26	63*	5	5
CC(C)N(C(=O)Cn1c(SCC(=O)N2CCN(c3ccccc3)CC2)nc2ccccc21)C(C)C	.	16	-9	4.6	.	10	0
CC(OC(=O)CN1C(=O)NC2(CCCC2)C1=O)C(=O)Nc1cccc(Cl)c1 (stereo unspecified)	4798	4	1	4.5	-10	1	2
CCOC(=O)c1ccc(NC(=O)C2COc3ccccc3O2)cc1 (stereo unspecified)	3934	0	0	-0.8	-28	2	4
Cc1c(F)cccc1NS(=O)(=O)c1ccc2c(c1)n(C)c(=O)c(=O)n2C	3088	-2	-9	-4.0	4	-6	-1
O=c1cnnc(Nc2ccccc2)[nH]1	4569	-6	-7	-4.8	-15	-1	5
CCOC(CNC(=O)c1cccn2c(=O)c3cc(Cl)ccc3nc12)OCC	10040	-7	7	3.5	-37	2	7
COc1ccc(NC2CCCN(C(=O)CN3C(=O)c4ccccc4C3=O)C2)cc1OC (stereo unspecified)	5646	0	0	1.8	0	1	7
Cc1ccc(S(=O)(=O)N2CC=C(c3c(C)n(C)c4ccccc34)CC2)cc1	3666	11	-7	2.2	-20	6	4
O=C(Cc1ccccc1[N+](=O)[O-])NCCCc1ccccc1	3248	3	3	2.0	-15	8	12
CC1CN(C(=O)c2ccccc2OCc2ccccc2Cl)CC(C)O1 (stereo unspecified)	3882	6	.	5.3	-18	9	2
CC(=O)NC(=S)NNC(=O)C(c1ccccc1)c1ccccc1	4208	6	14	16	-10	-2	5
CC(=O)NC1C(Oc2cccc(C)c2)OC2COC(c3ccco3)OC2C1O (stereo unspecified)	2110	6	-6	-0.9	-1	7	10
Cc1ccc(CS(=O)Cc2ccc(C(=O)NCc3ccc(OC(C)C)cc3)o2)cc1 (stereo unspecified)	5995	4	-3	-8.2	-5	1	11
CCc1cccc(C)c1NC(=O)C(c1ccc(O)cc1)N1CCC1=O (stereo unspecified)	3546	3	-4	1.1	-7	2	8

Single records, as listed above.
CCOC(=O)C1=C(C)N(CC)C(=S)NC1c1ccc(Cl)cc1 (stereo unspecified) in the list: Autofluor counter = 9424; ugtP null kill = -9; BJeLR viability = -12; Sa RN4220 lethal = 0.5; PrP UTR inh = -18; Mtb hypoxia rep = 0; Mtb hypoxia rep growth = 4
Cc1c(F)cccc1NS(=O)(=O)c1ccc2c(c1)n(C)c(=O)c(=O)n2C in the list: Autofluor counter = 3088; ugtP null kill = -2; BJeLR viability = -9; Sa RN4220 lethal = -4.0; PrP UTR inh = 4; Mtb hypoxia rep = -6; Mtb hypoxia rep growth = -1
O=C(Cc1ccccc1[N+](=O)[O-])NCCCc1ccccc1 in the list: Autofluor counter = 3248; ugtP null kill = 3; BJeLR viability = 3; Sa RN4220 lethal = 2.0; PrP UTR inh = -15; Mtb hypoxia rep = 8; Mtb hypoxia rep growth = 12

The listing continues.
SMILES	Autofluor counter	ugtP null kill	BJeLR viability	Sa RN4220 lethal	PrP UTR inh	Mtb hypoxia rep	Mtb hypoxia rep growth
Fc1ccccc1N1CCN(c2ncnc3nc[nH]c23)CC1	4527	5	-3	4.0	-10	4	12
O=C(Nc1ccc(Br)cc1C(=O)O)c1ccc2c(c1)C(=O)N(Cc1ccccc1)C2=O	5738	.	3	.	-5	.	.
NC(=O)C1CC2(CC(c3cccc(NC(=O)COc4ccc(Cl)cc4)c3)=NO2)CN1C(=O)COc1ccc(Cl)cc1 (stereo unspecified)	.	14	.	1.1	.	5	5
COc1ccc(-n2c(SCC(=O)NC3CC3)nc3ccccc3c2=O)cc1OC	?	0	.	2.0	.	2	9
O=C(Nc1ccc(Cl)cc1)C1=Cc2cc(Cl)ccc2OC1	3580	-14	-18	-8.1	-15	7	7

Source: PubChem BioAssay (several laboratories)
